Lassa entry inh: inhibitors of Lassa virus binding or cell entry; Lassa virus pseudotype entry inhibition, cell reporter; control for the full effect not named in the record; Potency, µM (titrated, usually from 37.9 µM), inactives show at the highest dose activity change, negative = inhibition, usual class: inhibitors; 300,000 compounds, 1.2% hits; AID 540256; active means well fitted inhibition curve with a large enough effect; inconclusive means small, poorly fitted or top-dose-only effect, or effect the other way; inactive means flat fitted curve, though single readings scatter; tested in HEK293 cells; also: % is scaled to controls: 0 for no effect and ±100 for the full control effect; nearly all actives have a fitted effect of over 50% in size; luciferase read-out
Cruzain inh Det: blocks cruzain activity in presence of Triton detergent; P25779; purified cruzain, Z-FR-AMC fluorescence, 0.01% Triton; Potency, µM, for inactives: max response, negative = inhibition, most hits filed as inhibitors; 200,000 compounds, 0.43% hits;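 also: plate controls were neutral wells for no effect and buffer without enzyme for full effect; nearly all actives have a fitted effect of over 40% in size; top concentration of the series not given in the record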
Target sequence (P25779 123-467 limits assumed): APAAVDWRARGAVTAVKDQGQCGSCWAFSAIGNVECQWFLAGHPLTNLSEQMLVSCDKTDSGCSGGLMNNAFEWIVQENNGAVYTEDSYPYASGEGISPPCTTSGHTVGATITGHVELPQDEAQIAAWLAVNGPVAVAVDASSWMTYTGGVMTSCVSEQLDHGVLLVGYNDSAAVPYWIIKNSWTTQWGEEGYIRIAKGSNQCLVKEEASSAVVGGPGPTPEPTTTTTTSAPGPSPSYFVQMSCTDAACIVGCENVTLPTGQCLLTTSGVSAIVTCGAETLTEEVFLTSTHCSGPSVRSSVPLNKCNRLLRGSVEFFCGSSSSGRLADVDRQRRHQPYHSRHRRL
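Detergent-containing arm of a paired screen for aggregation-based inhibition: 0.01% Triton X-100 present. Cruzain at 1.5 nM cleaved 2 uM Z-FR-AMC at pH 5.5 with 5 mM DTT; AMC fluorescence gain over 60 s measured activity.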
SARS PLP yeast: blocks SARS-CoV papain-like protease in a yeast assay. S. cerevisiae expressing SARS-CoV PLpro, growth rescue; control for the full effect not named in the record. Potency, µM (top dose mostly 32.9 µM), for the others: at the highest dose activity, positive = growth rescue. 330,000 compounds, 0.19% hits; active means well fitted rising curve with a large enough effect; inconclusive means small, poorly fitted or top-dose-only effect; inactive means no such curve, though single readings can be large or run the other way; also: 0% is about no effect; nearly all actives have a fitted effect of over 55% in size; growth read by luminescence after 48 h
NS1 inh: blocks influenza NS1 protein function; S. cerevisiae slowed by influenza A NS1, growth recovery by OD600; Potency, µM (doses to about 46.1 µM), for inactives: at the highest dose activity, positive = more growth; 270,000 compounds, 0.4% hits; AID 2326; active means well fitted rising curve with a large enough effect; inconclusive means small, poorly fitted or top-dose-only effect; inactive means no such curve, though single readings can be large or run the other way; also: nearly all actives have a fitted effect of over 50% in size
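S. cerevisiae expressing influenza A NS1, grown in glucose, washed, then diluted 1:100 into pH 6.0 -URA galactose medium with 23 nl compound. Growth recovery read as OD600; NS1-free strain serves as control.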
Cruzain inh noDet: blocks cruzain activity in detergent-free assay | P25779 | purified cruzain, Z-FR-AMC fluorescence, no detergent | Potency, µM, inactives show max response, negative = inhibition, actives largely listed as inhibitors | 200,000 compounds, 2.3% hits | AID 1476;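 also: plate controls were enzyme without inhibitor for no effect and buffer without enzyme for full effect; nearly all actives have a fitted effect of over 40% in size; top concentration of the series not given in the record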
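Purified cruzain at 1.5 nM, pre-incubated 15 min with compound at room temperature in 100 mM sodium acetate pH 5.5, 5 mM DTT, 0.00005% Triton X-100. Reaction started with 2 uM Z-FR-AMC; AMC fluorescence increase over 60 s gives rate.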
StopGo reporter: lowers the luciferase signal of an FMDV 2A StopGo reporter; human cells with a luciferase reporter of 2A StopGo recoding; control for the full effect not named in the record; Potency, µM (series often up to 57.9 µM), without a hit: top-dose signal change, negative = less light; 410,000 compounds, 1.2% hits; AID 1159524; active = well fitted falling curve with a large enough effect; inconclusive = small, poorly fitted or top-dose-only effect; inactive = no such curve, though single readings can be large or run the other way; tested in HEK293T cells; also: % is scaled to controls: 0 for no effect and ±100 for the full control effect; nearly all actives have a fitted effect of over 45% in size; luciferase light after 4 h
RE007 growth inh: less growth of the S. pombe RE007 Vpr strain | S. pombe RE007 Vpr strain, BacTiter-Glo ATP luminescence, 24 h; control for the full effect not named in the record | Potency, µM (highest dose often 92.2 µM), without a hit: at the top dose activity change, negative = less growth | 360,000 compounds, 0.21% hits; active = well fitted falling curve with a large enough effect; inconclusive = small, poorly fitted or top-dose-only effect; inactive = no such curve, though single readings can be large or run the other way;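 also: % is scaled to controls: 0 for no effect and ±100 for the full control effect; nearly all actives have a fitted effect of over 50% in size; the assay follows cell death caused by Vpr and the record does not say whether a fall means rescue or toxicity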
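Fission yeast strain RE007, carrying one chromosomally integrated HIV-1 vpr copy, was seeded at OD 0.01 in PMG+AL medium with 23 nL pinned compound. After 24 h at 30 °C and 99% humidity, viability was read by BacTiter-Glo luminescence.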
Marburg entry inh: inhibitors of Marburg virus binding or cell entry. Potency, µM (series often up to 37.8 µM), inactives show at the top dose activity change, negative = inhibition, most hits filed as inhibitors. Marburg virus pseudotyped entry inhibition, cell reporter; control for the full effect not named in the record; about a third of the inactives were read at about 46 µM. AID 540276. 300,000 compounds, 1.8% hits; active = well fitted inhibition curve with a large enough effect; inconclusive = small, poorly fitted or top-dose-only effect, or effect the other way; inactive = flat fitted curve, though single readings scatter; tested in HEK293 cells; about a fifth of its hits are not listed in these tables; also: % is scaled to controls: 0 for no effect and ±100 for the full control effect; luciferase read-out
The depositor's hits bear a star; ? = inconclusive; . = not tested or not shown; & = joins results of further samples; [ ] = another dose, or the depositor's remark. Unless noted, calls follow the shape of the dose curve; as a rule, active = well fitted curve in the direction sought with a large enough effect; inconclusive = small, poorly fitted or top-dose-only effect, or another doubt; inactive = no such curve, though single readings can be large; an effect the other way counts as inactive or inconclusive. Potency is read from the fitted curve at half-maximal effect. An unsorted share of the library; about 4.7% have a hit in one of these screens.

SMILES | Lassa entry inh | Cruzain inh Det | SARS PLP yeast | NS1 inh | Cruzain inh noDet | StopGo reporter | RE007 growth inh | Marburg entry inh
O=C1c2ccccc2C(=O)N1CSc1nnc2c3ccccc3n(CCc3ccccc3)c2n1 | 4% | -3.4% | -3% | -1% | ? | ? | 12% | 27%
Cn1nc(C(=O)Oc2cc(=O)n(C)c3ccccc23)c2ccccc2c1=O | . | . | 0% | 10% | . | -19% | -2% | .
CC(C)CCSc1nc2c(c(=O)n(C)c(=O)n2C)n1Cc1ccccc1Cl | ? | -0.8% | . | . | 18% | 28% | . | ?
CCCCc1nc(NCCN)c(C#N)c2c1CSC(C)(C)C2 | 0% | 6.3% | 1% | 12% | -16% | 0% | 6% | ?
CC(=O)c1cccc(NC(=O)c2sc(-n3nc(C)c(Cc4ccc5c(c4)OCO5)c3C)nc2C)c1 | -18%[46.1 µM] | 1.2% | . | . | -4% | ? | . | ?
C/C(=N\NC(=S)Nc1ccccc1)C1Cc2ccccc2C(=O)O1 (stereo unspecified) | -5% | . | 1% | 9% | . | -1% | 6% | 8%[46.1 µM]
CCCCNC(=O)C(=O)NCC1CCCN1S(=O)(=O)c1cccs1 (stereo unspecified) | 0% | . | -2% | . | . | 9% | 6% | 14%
Cc1ccc(-c2csc3ncn(C(C)C(=O)O)c(=O)c23)cc1 (stereo unspecified) | . | . | -11% | 23% | . | -7% | -10% | .
COCCN(CCOC)S(=O)(=O)c1ccc(C(=O)Nc2ccncc2)cc1 | 0%[46.1 µM] | . | 0% | 3% | . | -7% | 0% | -2%[46.1 µM]
COC(=O)c1ccc(Cn2ccc(=O)[nH]c2=O)cc1 | 29% | . | . | . | . | -4% | -7% | ?
O=C1C2CCCCN2C(=O)N1CCCCN1CCN(c2ccc([N+](=O)[O-])cc2)CC1 (stereo unspecified) | -14% | -10% | 3% | -4% | -17% | 20µM* | 3% | ?
Cc1cccc(C(=O)NC2CCCCCCC2)c1 | . | . | -1% | -8% | . | 64%[activator] | -11% | .
O=S(=O)(c1ccc(F)cc1)N1CCN(c2ccccn2)CC1 | -13% | . | -2% | 2% | . | 14% | -16% | ?
COc1ccccc1-c1ncnn1-c1sc2c(c1C#N)CCCCC2 | -4%[46.1 µM] | -4.0% | . | . | 0% | 48%[activator] | . | .
S=c1[nH]nc(-c2ccc(Cl)cc2Cl)n1-c1ccc2c(c1)OCCO2 | ? | . | 0% | 15% | . | 29% | 2% | 11%
CCn1c(=O)c2c(nc(SCC(=O)NC3CCCC3)n2C)n(C)c1=O | -10% | . | -1% | 9% | . | -14% | 29% | -2%[46.1 µM]
CCOc1cc(C)c(S(=O)(=O)NCc2ccccn2)cc1C | -2% | . | 0% | -9% | . | 39%[activator] | 2% | -4%
COCC(=O)N1CCC(Oc2ccc(C(=O)NCCc3ccncc3)cc2)CC1 | -10% | . | 1% | 4% | . | -6% | 8% | ?
COc1ccc(Cl)cc1NC(=O)CN(C)C(=O)c1ccc(N2CCCCCC2)c([N+](=O)[O-])c1 | -29% | . | 1% | . | . | -29% | 8% | ?
C=CCN1CCc2nc(N)sc2CC1 | 4% | -24% | 4% | 1% | -8% | -17%&-12% | -22%[18.4 µM] | -1%
COc1cccc(NC(=O)CC2COc3ccccc3O2)c1 (stereo unspecified) | -19% | -3.5% | -14% | -11% | -1% | 45%[activator] | -16% | -18%
Cn1c(C(=O)NCCc2ccsc2)cc2c(=O)n(C)c3ccccc3c21 | . | -0.2% | 11% | -40% | ? | -19% | 1% | .
Cc1ccc(C(=O)COC(=O)c2cc(-c3cccs3)nc3ccccc23)cc1 | -34%[46.1 µM] | -7.9% | . | . | ? | 63%[activator] | . | 17%[46.1 µM]
COc1ccc(Cn2ccnc2SCC(=O)NCc2ccccc2)cc1 | -28%[46.1 µM] | -2.1% | . | . | 1% | 13% | . | .
Clc1ccccc1OCCCOc1cccc2cccnc12 | ? | . | -12% | -110% | . | 23% | -23% | ?
SMILES | Lassa entry inh | Cruzain inh Det | SARS PLP yeast | NS1 inh | Cruzain inh noDet | StopGo reporter | RE007 growth inh | Marburg entry inh
Cc1cc(Nc2ccccc2)n(CCOC(=O)COc2ccccc2)n1 | 26% | 5.2% | -7% | -28% | ? | ? | 13% | -11%
O=C(O)CN(c1ccc(F)cc1)S(=O)(=O)c1ccc2c(c1)OCCO2 | -2% | 4.3% | 7% | -6% | -1% | 15% | 1% | -5%
Cc1cc(N2CCOCC2)ccc1/C=C1\SC(=O)N(C(C)C)C1=O | 13% | -6.4% | -2% | 5% | 22% | 16% | -3% | ?
CC(C)n1c(N2CCCC2)nc2c1c(=O)[nH]c(=O)n2C | . | . | 0% | 7% | . | -8% | 0% | .
Cc1ccc(-n2c(SCc3nnc4n3CCC4)nnc2-c2ccccc2)cc1 | 2% | 1.5% | 8% | 5% | 2% | -2% | 9% | 6%
CCCOc1ccc(S(=O)(=O)NNC(=O)c2cc3ccccc3o2)cc1 | . | -5.4% | -10% | -20% | 5% | ? | 1% | 4%
COC(=O)C1=C(CS(=O)(=O)c2ccc(C)cc2)NC(=O)NC1c1ccc(OC)c(OC)c1 (stereo unspecified) | . | . | -3% | 5% | . | -11% | -6% | .
Nc1nc(SCc2ccc(Br)cc2)c2ncn(C3OC(CO)C(O)C3O)c2n1 (stereo unspecified) | 4%[46.1 µM] | . | . | . | . | 19% | 15% | -3%[46.1 µM]
COCCCNC(=O)c1ccc(N2CCOCC2)c(NS(=O)(=O)c2ccc(OC)cc2)c1 | 3% | -6.1% | ? | -1% | -7% | . | -12% | 4%
COc1ccc(C(=O)NCc2cnn(C)c2C)cc1OC1CCN(C(C)C)CC1 | ? | . | -4% | 3% | . | -15% | 3% | 0%
N#Cc1c(-c2ccco2)cc(C2CC2)nc1N | 4% | -5.6% | -4% | -31% | 2% | -15% | 1% | -22%&-22%
Cc1ccc(NC(Cc2cc(C)no2)c2ccccc2)cc1 (stereo unspecified) | 7% | -7.7% | 16% | -12% | -8% | -18% | 37% | -5%
N#Cc1cccc(NC(=O)C2SC(=Nc3ccccc3)C(C(=O)N3CCOCC3)=C2N)c1 (stereo unspecified) | -5%[46.1 µM] | -4.7% | 11% | 24% | 15% | 10% | 6% | ?
COc1ccc(NC(=O)COC(=O)CCCC2=NS(=O)(=O)c3ccccc3N2)cc1 | . | . | 1% | -2% | . | 17% | -6% | .
CNCCC1Sc2ccccc2Oc2ccccc21 (stereo unspecified) | ? | . | 0% | . | . | 6% | -11% | ?
COCCN(Cc1cc2cc(C)ccc2n2nnnc12)C(=S)Nc1cccc(C)c1 | -25% | . | 1% | . | . | -17% | -10% | ?
COc1ccc(NC(=O)CSc2nnc3n2CCCCC3)cc1 | ? | . | 0% | . | . | 3% | -1% | 8%
COC(CNC(=O)c1ccc(Cn2c(=S)[nH]c3cc4c(cc3c2=O)OCO4)cc1)OC | 9% | 0.3% | ? | 6.3µM* | 20% | 27% | 11% | ?
CC(C)Cn1c(N)c(C(=O)COC(=O)[C@H](C)NC(=O)c2ccccc2Cl)c(=O)n(C)c1=O | -14%[46.1 µM] | . | -3% | . | . | -9% | 6% | -2%
CSc1ccc(/C=C2\C(=N)N3N=C(CC(=O)N4CCCCC4)SC3=NC2=O)cc1 | . | . | 10% | 2% | . | -20% | -1% | .
CCOC(=O)c1ccc(NC(=S)N(CCCN(CC)CC)Cc2ccco2)cc1 | ? | 1.0% | -2% | -15% | -4% | 1% | -9% | -53%
CCOc1ccc(-c2cc(N3C(=O)Nc4ccccc4N3O)n[nH]2)cc1 | ? | . | 0% | . | . | 1% | 4% | ?
CC(C)c1ccc(NC(=O)c2cccnc2)cc1 | 22% | 2.1% | -4% | -10% | 9% | . | -14% | -15%
Cn1cnc([N+](=O)[O-])c1Sc1nc(N)nc2c1ncn2C1OC(CO)C(O)C1O (stereo unspecified) | 2.8µM* | . | . | . | . | ? | -8% | ?
S=C(Nc1ccccc1)Nc1nc2ccccc2n1CCOc1ccc(Cl)cc1 | -8% | 2.9% | 25% | 3% | 10µM* | 6% | -27% | ?
SMILES | Lassa entry inh | Cruzain inh Det | SARS PLP yeast | NS1 inh | Cruzain inh noDet | StopGo reporter | RE007 growth inh | Marburg entry inh
O=C(NNS(=O)(=O)c1ccccc1F)c1cccc(S(=O)(=O)N2CCOCC2)c1 | -2% | -0.6% | 9% | 10% | 1% | 51%[activator] | 14% | 23%
COc1ccc(OCCSc2nc3ccccc3n2CC(=O)O)cc1 | 20% | 0.2% | 1% | ? | 10% | -18% | 1% | ?
CCC1CCc2c(sc(N)c2C(N)=O)C1 (stereo unspecified) | 4% | . | . | . | . | 0% | -4% | ?
Cn1ncc2c(N3CCN(c4ccccc4F)CC3)ncnc21 | -5%[46.1 µM] | 0.1%&-2.1% | 5% | -7% | -1%&0% | ? | 1% | ?
Clc1ccc(CN2CCN(c3ccccc3)CC2)cn1 | 10% | . | 0% | -6% | . | -26% | 40% | ?
O=C(O)c1cc(S(=O)(=O)N2CCOCC2)ccc1N1CCOCC1 | 1% | 3.7% | -1% | 3% | 1% | 0% | 8% | -22%[46.1 µM]
COc1ccc(N2CCN(C(=O)c3cc4c(=O)oc5ccc(C)cc5c4s3)CC2)cc1 | 4%[46.1 µM] | 3.1% | . | . | -1% | -16% | . | ?
COc1ccc(S(=O)(=O)N2CCOCC2)cc1NC(=O)COc1ccccc1 | -11% | . | . | . | . | 0% | 5% | 16%[46.1 µM]
O=c1c2ccccc2nc(/C=C/c2cc(Br)ccc2O)n1CCCO | 10µM* | . | -1% | 4% | . | 25µM* | 7% | ?
Cc1cc(-c2nnnn2-c2ccc(F)cc2)no1 | 10% | . | 0% | 1% | . | -13% | 14% | ?
CCCCN(C(=O)NC(=O)Nc1c(C)cc(C)cc1C)S(C)(=O)=O | 8% | -1.5% | 7% | -9% | -9% | . | 2% | 13%
Cc1nc(N2CCOCC2)c2c3c(sc2n1)CCC3 | -1% | . | -3% | . | . | -25% | -13% | 0%
CC(=O)Nc1ccc(NC(=O)CN2C(=O)NC3(CCCCCCC3)C2=O)cc1 | ? | . | -16% | . | . | -14% | -3% | 11%
Cc1nc2ccc(NC(=O)c3ccc(N4C(=O)CCC4=O)cc3)cc2s1 | -10% | . | 0% | . | . | -7% | 2% | -6%[46.1 µM]
Brc1ccccc1 | . | 2.4% | 2% | 8% | -4% | -7% | -6% | .

Bioassay records from PubChem.
